# Ran importin = inhibitors of Ran–importin-beta complex formation, primary screen, biochemical, CFP-Ran/YFP-importin-beta FRET, RCC1, cell-free (AID 434961); CFP-Ran/YFP-importin-beta FRET, cell-free; stronger effect = higher value; inhibition, %; 0.2% of 7,700 active;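 active means more than half of the replicate wells above 15% inhibition; inconclusive means exactly half above it; inactive means fewer than half above it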;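 further: 0% = DMSO wells and 100% inhibition = RanGDP control wells on each plate; stock of unstated strength diluted about 400-fold; mean of two wells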
# An asterisk follows results filed as active; ? = inconclusive.
Ran importin	mol
6.8	Cc1noc(C)c1NC(=O)N(C)C[C@H]1Oc2c(NC(=O)c3nc4ccccc4s3)cccc2C(=O)N([C@@H](C)CO)C[C@@H]1C
0.1	C[C@@H]1CN([C@@H](C)CO)C(=O)c2cc(NC(=O)Cn3cnnn3)ccc2O[C@@H]1CN(C)C(=O)NC1CCCCC1
-4.3	C[C@@H]1CN([C@H](C)CO)C(=O)c2cc(NC(=O)Cn3cnnn3)ccc2O[C@@H]1CN(C)S(=O)(=O)c1cccs1
3.0	C[C@@H]1CN([C@@H](C)CO)C(=O)c2cc(NC(=O)C3CC3)ccc2O[C@@H]1CN(C)Cc1ccc(C(=O)O)cc1
5.5	Cc1noc(C)c1NC(=O)Nc1ccc2c(c1)CC(=O)N([C@H](C)CO)C[C@@H](C)[C@@H](CN(C)C(=O)Nc1cccc3ccccc13)O2
8.1	C[C@H](CO)N1C[C@H](C)[C@H](CN(C)C(=O)Nc2cccc3ccccc23)Oc2ccc(NC(=O)Nc3ccc4c(c3)OCO4)cc2CC1=O
1.8	COc1ccc(S(=O)(=O)N(C)C[C@H]2Oc3ccc(NC(=O)Cc4ccccc4)cc3CC(=O)N([C@@H](C)CO)C[C@H]2C)cc1
0.6	CNC[C@@H]1Oc2c(NC(=O)C3CCOCC3)cccc2C(=O)N([C@@H](C)CO)C[C@H]1C
2.9	Cc1noc(C)c1NC(=O)N(C)C[C@H]1OCCCC[C@@H](C)Oc2ccc(NS(=O)(=O)c3cn(C)cn3)cc2C(=O)N([C@@H](C)CO)C[C@H]1C
10.7	C[C@H]1CN([C@@H](C)CO)C(=O)Cc2cc(NS(C)(=O)=O)ccc2O[C@H]1CN(C)S(=O)(=O)c1cn(C)cn1
1.0	C[C@@H]1CN([C@H](C)CO)C(=O)Cc2cc(NC(=O)NC3CCCCC3)ccc2O[C@H]1CN(C)C(=O)Nc1cccc2ccccc12
-3.7	C[C@H](CO)N1C[C@H](C)[C@@H](CN(C)C)Oc2ccc(NC(=O)Nc3ccc4c(c3)OCO4)cc2C1=O
2.6	C[C@H]1CN([C@@H](C)CO)C(=O)c2cc(NS(C)(=O)=O)ccc2O[C@@H]1CN(C)C(=O)Nc1ccc(F)cc1
-0.1	CC(C)NC(=O)N(C)C[C@@H]1Oc2c(NC(=O)C3CCOCC3)cccc2C(=O)N([C@H](C)CO)C[C@H]1C
3.3	C[C@H]1CN([C@@H](C)CO)C(=O)c2cccc(NC(=O)Nc3cccc4ccccc34)c2O[C@H]1CN(C)S(=O)(=O)c1cn(C)cn1
5.5	CNC[C@H]1Oc2ccc(NC(=O)Nc3c(C)noc3C)cc2C(=O)N([C@H](C)CO)C[C@@H]1C
?	C[C@@H]1CCCCO[C@H](CN(C)C(=O)Cc2ccccc2)[C@H](C)CN([C@H](C)CO)C(=O)c2cc(NS(C)(=O)=O)ccc2O1
-0.1	C[C@H]1CN([C@@H](C)CO)C(=O)CCCn2cc(nn2)CO[C@H]1CN(C)C(=O)c1ccc(N2CCN(C)CC2)cc1
2.9	C[C@H](CO)N1C[C@H](C)[C@@H](CN(C)C(=O)NC2CCCCC2)Oc2c(NC(=O)c3nc4ccccc4s3)cccc2C1=O
-1.4	C[C@H](CO)N1C[C@H](C)[C@@H](CN(C)S(=O)(=O)c2cn(C)cn2)Oc2ccc(N(C)C)cc2CC1=O
-0.7	C[C@@H]1CCCCO[C@@H](CN(C)C(=O)c2ccccc2)[C@H](C)CN([C@@H](C)CO)C(=O)c2cc(NS(=O)(=O)c3ccccc3)ccc2O1
-1.0	C[C@H](CO)N1C[C@H](C)[C@@H](CN(C)C)Oc2ccc(NC(=O)CCCN(C)C)cc2CC1=O
0.0	C[C@@H]1CN([C@H](C)CO)C(=O)CCCn2cc(nn2)CO[C@H]1CN(C)Cc1ccc2c(c1)OCCN2C
3.3	CC(C)NC(=O)N(C)C[C@H]1OCCCC[C@@H](C)Oc2ccc(NC(=O)Nc3ccc(C(F)(F)F)cc3)cc2C(=O)N([C@H](C)CO)C[C@@H]1C
-4.2	C[C@@H]1CN([C@@H](C)CO)C(=O)Cc2cc(NS(=O)(=O)c3cccs3)ccc2O[C@@H]1CN(C)Cc1ccccc1
?	C[C@@H]1CN([C@@H](C)CO)C(=O)Cc2cc(NC(=O)Cc3ccccc3)ccc2O[C@@H]1CN(C)S(=O)(=O)c1cn(C)cn1
0.9	C[C@@H]1CCCCO[C@H](CN(C)S(=O)(=O)c2cn(C)cn2)[C@@H](C)CN([C@H](C)CO)C(=O)c2cc(NC(=O)c3ccccc3)ccc2O1
?	C[C@@H]1CN([C@H](C)CO)C(=O)c2cc(NS(=O)(=O)c3cn(C)cn3)ccc2O[C@H]1CN(C)S(=O)(=O)c1cn(C)cn1
4.8	CCCN(C)C[C@H]1OCCCC[C@@H](C)Oc2ccc(NC(=O)NC(C)C)cc2C(=O)N([C@@H](C)CO)C[C@H]1C
-0.5	C[C@H](CO)N1C[C@H](C)[C@@H](CN(C)C(=O)c2ccccc2)OCCCC[C@H](C)Oc2ccc(NC(=O)Nc3ccc(F)cc3)cc2C1=O

# Six of the entries above in order of their number in Ran importin, descending.
smiles	Ran importin
Cc1noc(C)c1NC(=O)N(C)C[C@H]1Oc2c(NC(=O)c3nc4ccccc4s3)cccc2C(=O)N([C@@H](C)CO)C[C@@H]1C	6.8
C[C@H]1CN([C@@H](C)CO)C(=O)c2cccc(NC(=O)Nc3cccc4ccccc34)c2O[C@H]1CN(C)S(=O)(=O)c1cn(C)cn1	3.3
C[C@@H]1CN([C@@H](C)CO)C(=O)c2cc(NC(=O)C3CC3)ccc2O[C@@H]1CN(C)Cc1ccc(C(=O)O)cc1	3.0
COc1ccc(S(=O)(=O)N(C)C[C@H]2Oc3ccc(NC(=O)Cc4ccccc4)cc3CC(=O)N([C@@H](C)CO)C[C@H]2C)cc1	1.8
C[C@@H]1CCCCO[C@H](CN(C)S(=O)(=O)c2cn(C)cn2)[C@@H](C)CN([C@H](C)CO)C(=O)c2cc(NC(=O)c3ccccc3)ccc2O1	0.9
C[C@@H]1CN([C@@H](C)CO)C(=O)Cc2cc(NS(=O)(=O)c3cccs3)ccc2O[C@@H]1CN(C)Cc1ccccc1	-4.2

# Additional records
Ran importin	mol
0.7	COc1ccc(S(=O)(=O)N(C)C[C@@H]2Oc3ccc(NS(=O)(=O)c4ccc(Cl)cc4)cc3C(=O)N([C@H](C)CO)C[C@H]2C)cc1
2.0	CNC[C@@H]1Oc2ccc(NC(=O)CCN3CCOCC3)cc2CC(=O)N([C@H](C)CO)C[C@@H]1C
2.4	C[C@H](CO)N1C[C@H](C)[C@H](CN(C)Cc2ccc3c(c2)OCO3)Oc2ccc(NS(C)(=O)=O)cc2CC1=O
-0.3	C[C@@H]1CCCCO[C@H](CN(C)Cc2ccc(C(=O)O)cc2)[C@@H](C)CN([C@H](C)CO)C(=O)c2cc(NC(=O)C3CCCCC3)ccc2O1
2.1	CC(C)NC(=O)Nc1ccc2c(c1)C(=O)N([C@H](C)CO)C[C@H](C)[C@@H](CN(C)Cc1ccc(C(=O)O)cc1)OCCCC[C@@H](C)O2
4.2	C[C@@H]1CCCCO[C@@H](CN(C)S(=O)(=O)c2cccs2)[C@@H](C)CN([C@H](C)CO)C(=O)c2cc(NC(=O)Cc3ccccc3)ccc2O1
1.5	C[C@H](CO)N1C[C@H](C)[C@H](CN(C)S(=O)(=O)c2ccc(F)cc2)OCCCC[C@H](C)Oc2ccc(NC(=O)c3ccncc3)cc2C1=O
0.8	Cc1noc(C)c1S(=O)(=O)Nc1ccc2c(c1)C(=O)N([C@H](C)CO)C[C@H](C)[C@@H](CN(C)CC1CC1)O2
-0.2	C[C@H](CO)N1C[C@H](C)[C@@H](CN(C)Cc2ccc(C(=O)O)cc2)OCCCC[C@H](C)Oc2ccc(NC(=O)c3ccncc3)cc2C1=O
3.5	CNC[C@@H]1OCCCC[C@@H](C)Oc2ccc(NS(=O)(=O)c3ccccc3)cc2C(=O)N([C@H](C)CO)C[C@@H]1C
0.9	C[C@@H]1CCCCO[C@@H](CN(C)C)[C@H](C)CN([C@@H](C)CO)C(=O)c2cc(NC(=O)Nc3ccc(C(F)(F)F)cc3)ccc2O1
-4.6	C[C@@H]1CCCCO[C@H](CN(C)Cc2ccccc2)[C@@H](C)CN([C@@H](C)CO)C(=O)c2cc(NS(=O)(=O)c3cccs3)ccc2O1
1.2	Cc1noc(C)c1NC(=O)Nc1ccc2c(c1)C(=O)N([C@@H](C)CO)C[C@@H](C)[C@H](CN(C)C(=O)NC(C)C)OCCCC[C@@H](C)O2
-0.5	C[C@@H]1CCCCO[C@@H](CN(C)C(=O)CCCN(C)C)[C@H](C)CN([C@@H](C)CO)C(=O)c2cc(NC(=O)CCCN(C)C)ccc2O1
?	Cc1noc(C)c1NC(=O)N(C)C[C@H]1Oc2ccc(NC(=O)CCCN(C)C)cc2C(=O)N([C@H](C)CO)C[C@H]1C
-0.5	CNC[C@H]1Oc2ccc(NC(=O)Nc3cccc4ccccc34)cc2CC(=O)N([C@@H](C)CO)C[C@@H]1C
?	C[C@H](CO)N1C[C@H](C)[C@@H](CN(C)S(=O)(=O)c2ccc(Cl)cc2)Oc2ccc(NS(=O)(=O)c3cn(C)cn3)cc2CC1=O
-2.6	C[C@H]1CN([C@@H](C)CO)C(=O)c2cccc(NS(=O)(=O)c3ccc(Cl)cc3)c2O[C@H]1CN(C)C(=O)Nc1ccc(C(F)(F)F)cc1
2.0	C[C@@H]1CN([C@@H](C)CO)C(=O)c2cccc(N(C)C)c2O[C@@H]1CN(C)Cc1ccc(Cl)c(Cl)c1
-0.7	CNC[C@@H]1OCCCC[C@H](C)Oc2ccc(NC(=O)Nc3c(C)noc3C)cc2C(=O)N([C@@H](C)CO)C[C@@H]1C
3.4	COc1ccccc1CN(C)C[C@H]1OCc2cn(nn2)CCCC(=O)N([C@H](C)CO)C[C@H]1C
-4.4	C[C@@H]1CCCCO[C@@H](CN(C)C)[C@@H](C)CN([C@H](C)CO)C(=O)c2cc(NC(=O)Cc3ccccc3)ccc2O1
-4.1	COc1ccc(-c2cnc3c(c2)C(=O)N([C@H](C)CO)C[C@H](C)[C@H](CN(C)Cc2ccc(F)cc2)O3)cc1
1.8	C[C@@H]1CCCCO[C@@H](CN(C)Cc2ccc(C(=O)O)cc2)[C@@H](C)CN([C@H](C)CO)C(=O)c2cc(NC(=O)Nc3ccc(F)cc3)ccc2O1
?	CC(C)NC(=O)N(C)C[C@H]1Oc2c(NC(=O)C3CCOCC3)cccc2C(=O)N([C@@H](C)CO)C[C@@H]1C
1.1	Cc1ccc(S(=O)(=O)N(C)C[C@H]2Oc3ccc(NC(=O)C4CC4)cc3CC(=O)N([C@@H](C)CO)C[C@H]2C)cc1
4.2	CNC[C@H]1Oc2ccc(NC(=O)Nc3ccc4c(c3)OCO4)cc2CC(=O)N([C@@H](C)CO)C[C@@H]1C
?	C[C@@H]1CCCCO[C@@H](CN(C)C(=O)CCCN(C)C)[C@@H](C)CN([C@@H](C)CO)C(=O)c2cc(N(C)C)ccc2O1
0.1	C[C@@H]1CN([C@H](C)CO)C(=O)c2cc(NC(=O)CCC(F)(F)F)ccc2O[C@@H]1CN(C)C(=O)Nc1ccccc1
0.2	Cc1noc(C)c1S(=O)(=O)Nc1cccc2c1O[C@@H](CN(C)S(=O)(=O)c1cn(C)cn1)[C@@H](C)CN([C@H](C)CO)C2=O

# The listing continues.
Ran importin	mol
-0.5	C[C@@H]1CN([C@@H](C)CO)C(=O)c2cc(NS(=O)(=O)c3cn(C)cn3)ccc2O[C@@H](C)CCCCO[C@@H]1CN(C)C(=O)c1ccccc1
1.4	C[C@@H]1CCCCO[C@@H](CN(C)S(=O)(=O)c2ccccc2)[C@@H](C)CN([C@H](C)CO)C(=O)c2cc(NC(=O)Nc3ccccc3)ccc2O1
4.5	Cc1noc(C)c1S(=O)(=O)Nc1ccc2c(c1)C(=O)N([C@@H](C)CO)C[C@@H](C)[C@H](CN(C)C(=O)Nc1ccccc1)OCCCC[C@@H](C)O2
?	C[C@@H]1CN([C@@H](C)CO)C(=O)c2cc(NC(=O)c3ccncc3)ccc2O[C@@H](C)CCCCO[C@@H]1CN(C)S(=O)(=O)c1ccc(F)cc1
-2.6	C[C@@H]1CN([C@H](C)CO)C(=O)c2cc(N(C)C)ccc2O[C@@H](C)CCCCO[C@@H]1CN(C)Cc1ccccc1
-2.2	C[C@@H]1CN([C@@H](C)CO)C(=O)c2cccc(NC(=O)c3nc4ccccc4s3)c2O[C@H]1CN(C)S(=O)(=O)c1cccs1
-3.3	C[C@H](CO)N1C[C@H](C)[C@H](CN(C)S(=O)(=O)c2ccccc2)Oc2ncc(-c3ccccc3)cc2C1=O
-2.5	C[C@H](CO)N1C[C@H](C)[C@@H](CN(C)S(=O)(=O)c2cccs2)OCCCC[C@H](C)Oc2ccc(NS(=O)(=O)c3cccs3)cc2C1=O
-3.3	C[C@@H]1CN([C@@H](C)CO)C(=O)c2cccc(NC(=O)C3CC3)c2O[C@H]1CN(C)C(=O)Nc1ccccc1
-4.0	Cc1noc(C)c1NC(=O)N(C)C[C@@H]1Oc2c(NS(=O)(=O)c3ccccc3)cccc2C(=O)N([C@@H](C)CO)C[C@H]1C
1.8	CC(C)NC(=O)N(C)C[C@@H]1OCCCC[C@@H](C)Oc2ccc(N(C)C)cc2C(=O)N([C@H](C)CO)C[C@@H]1C
2.2	Cc1noc(C)c1S(=O)(=O)Nc1ccc2c(c1)CC(=O)N([C@H](C)CO)C[C@H](C)[C@@H](CN(C)Cc1ccc(-c3ccccc3)cc1)O2
-3.7	C[C@@H]1CCCCO[C@@H](CN(C)C(=O)CCC(F)(F)F)[C@@H](C)CN([C@H](C)CO)C(=O)c2cc(NS(C)(=O)=O)ccc2O1
?	C[C@@H]1CN([C@H](C)CO)C(=O)c2cc(NC(=O)Cc3ccccc3)ccc2O[C@@H](C)CCCCO[C@H]1CN(C)C(=O)Nc1ccccc1
?	C[C@@H]1CN([C@@H](C)CO)C(=O)Cc2cc(NC(=O)NC3CCCCC3)ccc2O[C@H]1CN(C)S(=O)(=O)c1cccs1
-1.2	C[C@@H]1CN([C@@H](C)CO)C(=O)c2cc(NC(=O)Cc3ccccc3)ccc2O[C@H]1CN(C)Cc1ccc(C(=O)O)cc1
3.6	CC(C)NC(=O)N(C)C[C@H]1Oc2ccc(NS(=O)(=O)c3cn(C)cn3)cc2CC(=O)N([C@H](C)CO)C[C@@H]1C

# Compound activity as filed in PubChem BioAssay.

# This is a subset; the hit share may differ from the screen's.
